MT1-MMP act inh: blocks activation of human MT1-MMP; P50281; HT1080 RFP-PRO-GFP cells, GFP/RFP ratio fluorescence, overnight; percent of plate control window, DMSO zero; GFP/RFP ratio change, % at 20 µM; hit rate 0.061% among 360,000;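 active means GFP/RFP ratio change of at least 30% with cell ATP level not reduced by more than half and red fluorescence within 50% of control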; further: strong numbers were not always called active
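Assay system: RFP-PRO-GFP reporter HT1080 cells; read-out basis: GFP/RFP fluorescence ratio; benchmarks: DMSO wells and RFP-L50D-GFP cells; doses: 20 µM single dose, 1% DMSO; schedule: overnight cell settling, then overnight compound exposure, 37 °C, 5% CO2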
CSC inhib: blocks cancer stem cells. cancer stem cell-like cells viability, luminescence. inhibition, % at 7.5 µM. hit rate 1.1% among 300,000;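 active means mean at 75% or more and at least half the replicates too; tested in HMLE shEcad cells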;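 further: 0% = median of negative and 100% = median of positive control wells; the first replicate is given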
Rce1 inh: yeast Ras-converting enzyme inhibition. AID 2563. calls only. yeast membranes, quenched prenylated peptide cleavage fluorescence. hit rate 0.27% among 290,000;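 active means fall in fluorescence gain of 50% or more versus controls, with final raw signal at or below 3038400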;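 further: plate controls were neutral control wells for no effect and wells lacking membranes for full effect; tested at 10 µM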
Target sequence (Q03530 whole entry, looked up): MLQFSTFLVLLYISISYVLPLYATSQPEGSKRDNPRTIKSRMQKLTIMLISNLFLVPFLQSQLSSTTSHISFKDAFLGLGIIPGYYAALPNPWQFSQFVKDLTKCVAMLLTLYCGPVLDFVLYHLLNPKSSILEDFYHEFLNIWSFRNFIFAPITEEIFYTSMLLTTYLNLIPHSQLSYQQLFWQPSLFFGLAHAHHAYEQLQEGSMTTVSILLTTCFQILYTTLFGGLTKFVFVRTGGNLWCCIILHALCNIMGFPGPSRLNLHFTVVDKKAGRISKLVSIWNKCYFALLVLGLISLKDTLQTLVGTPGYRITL
PABP FP inh: PABP-poly(A) binding inhibition; AID 2014; inhibition, % at 35 µM; PABP-poly(A) RNA binding, fluorescence polarization; hit rate 1% among 290,000; P11940;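 active means 50% or more with normal probe brightness, or confirmed in later tests; about a fifth of its hits are not listed in these tables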;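 further: calls also rest on retests at 20 µM and on dose response follow-up; controls were probe without protein and protein plus probe with vehicle; some compounds called inactive have numbers as strong as hits; many hits fall short of the cut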
Target sequence (P11940 whole entry, looked up): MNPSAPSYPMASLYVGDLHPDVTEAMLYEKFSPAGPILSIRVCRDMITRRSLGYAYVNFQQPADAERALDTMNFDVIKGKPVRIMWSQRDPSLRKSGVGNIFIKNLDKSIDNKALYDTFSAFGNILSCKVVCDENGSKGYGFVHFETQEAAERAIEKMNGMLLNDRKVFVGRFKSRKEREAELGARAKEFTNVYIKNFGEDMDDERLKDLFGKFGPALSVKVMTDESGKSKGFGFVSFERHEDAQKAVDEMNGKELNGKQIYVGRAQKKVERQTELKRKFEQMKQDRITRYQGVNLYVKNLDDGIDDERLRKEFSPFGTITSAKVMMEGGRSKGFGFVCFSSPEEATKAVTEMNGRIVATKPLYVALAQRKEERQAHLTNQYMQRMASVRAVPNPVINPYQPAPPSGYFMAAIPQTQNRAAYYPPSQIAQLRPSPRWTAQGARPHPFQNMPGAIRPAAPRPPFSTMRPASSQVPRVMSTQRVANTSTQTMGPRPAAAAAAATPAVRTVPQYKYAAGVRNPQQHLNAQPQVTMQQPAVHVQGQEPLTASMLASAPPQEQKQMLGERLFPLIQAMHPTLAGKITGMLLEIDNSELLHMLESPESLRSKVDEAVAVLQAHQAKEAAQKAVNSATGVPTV
Yeast UUG start: modulators of start codon recognition fidelity in yeast | activity score, % at 18.7 µM | AID 602363 | S. cerevisiae UUG-firefly luciferase reporter, luminescence/redox ratio | hit rate 0.13% among 350,000;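 active means replicate mean at a twofold rise or more, about +100% in these data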;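 further: firefly luciferase made from a UUG start codon reports start codon fidelity; reporter light over untreated wells divided by growth signal over untreated wells; some hits fall short of that in this replicate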
eIF4H FP inh: inhibitors of RNA binding by human eIF4H | Q15056 | eIF4H fluorescence polarization binding assay | inhibition, % at 35 µM | hit rate 0.94% among 290,000 | AID 2012;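 active means 50% or more with normal probe brightness, or confirmed in later tests; about a fifth of its hits are not listed in these tables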;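 further: calls also rest on retests at 20 µM and on dose response follow-up; 0% = protein and probe with vehicle and 100% = probe without protein; strong numbers were not always called active; many hits fall short of the cut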
Env fusion inh: blocks HIV Env-driven cell-cell fusion; AID 651610; hit rate 1.1% among 360,000; HeLa-JRFL Env/CEM21 cell fusion, luciferase; inhibition, % at 12.3 µM;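 active means mean replicate inhibition score of at least 50 and every replicate individually at or above 50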;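 further: 0% = plate neutral controls and 100% = maraviroc near 300 nM; one replicate is shown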
MT1-MMP act inh RFP: also measured in MT1-MMP act inh; calls as there; RFP signal change, %; measured here: RFP expression control read;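 0 = vehicle wells; hits needed this value within 50% of zero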
The depositor's hits bear a star; i = inactive; / = not tested or not shown.

SMILES	MT1-MMP act inh	MT1-MMP act inh RFP	CSC inhib	Rce1 inh	PABP FP inh	Yeast UUG start	eIF4H FP inh	Env fusion inh
Cc1onc(-c2ccccc2Cl)c1C(=O)NC(=S)Nc1ccc(C(C)C)cc1	-5	-4	25	i	-4	/	-10	21
O=C(Nc1ccccc1)C(c1ccccc1)c1ccccc1	-2	0	-14	i	5	-14	1	39
CC[C@]12c3[nH]c4cc(CCC(=O)N(C)C)ccc4c3CCN1C(=O)[C@@H](CC(=O)NCCN1CCOCC1)C[C@@H]2C(=O)N1CCN(C(=O)C2CC2)CC1	3	6	/	/	/	8	/	-110
CC(NC(=O)C(=O)NCCC1=CCCCC1)c1ccccc1 (stereo not given)	-5	-6	-7	i	4	/	-3	-15
COc1cccc(C(=O)N2CCN=C2SC)c1	0	3	-21	i	-6	/	-4	-12
CC1(c2ccccc2Cl)NC(=O)N(CC(=O)NCc2ccc3c(c2)OCO3)C1=O (stereo not given)	1	-1	/	i	2	-13	-14	-3
O=C(O)c1ccc(Cl)c(NC(=O)C2CCCN2S(=O)(=O)c2cccc3nsnc23)c1 (stereo not given)	-3	-5	-12	i	4	-13	2	-17
COc1ccccc1C(CCNCc1ccc(N(C)C)cc1)c1ccc(OC(C)C)cc1 (stereo not given)	-4	-7	103*	i	-12	0	-9	55*
CCSC1=C(C#N)C(c2ccccc2C)CC(=O)N1 (stereo not given)	1	-7	-1	i	-6	-20	-7	/
CC1(Oc2ccc(Cl)cc2)CCN(Cc2ccc(-c3ccccn3)cc2)C1 (stereo not given)	1	2	/	/	/	2	/	-15
Cc1cccc(C)c1NC(=O)C(c1cccs1)N(Cc1ccco1)C(=O)Cn1nnc2ccccc21 (stereo not given)	-1	5	-3	i	-3	-2	-4	/
O=S(=O)(Nc1ccc2nc(-c3ccco3)[nH]c2c1)c1ccccc1	-1	-3	/	i	6	-20	20	-3
Cc1ccc2oc(C(F)(F)C(F)F)cc(=O)c2c1	1	5	-12	i	3	/	-6	8
O=C(C1=C[C@@H](c2ccc(C(F)(F)F)cc2)C[C@@H](OCc2ccc(CO)cc2)O1)N1CCN(Cc2ccccc2)CC1	-2	-4	5	i	-2	-12	-7	-3
Cc1onc(-c2c(Cl)cccc2Cl)c1NC(=O)NN(C)C	0	1	/	i	4	-5	-10	14
CC(C)C(=O)N(Cc1cc2ccccc2[nH]c1=O)C(C)(C)C	-5	-2	-13	/	-5	-5	-12	/
Cc1csc(NC(=O)CSc2ncnc3c2cnn3-c2ccccc2Cl)n1	-6	-17	/	i	-4	-13	15	/
Cn1c(=O)[nH]c(=O)c2c1nc(CN1CCOCC1)n2CCCc1ccccc1	-1	3	15	i	-5	16	6	9
COCCn1c(SCC(=O)Nc2nnc(C)s2)nnc1-c1cc2ccccc2cc1O	1	0	-15	i	0	-19	-14	-28
Cc1cc(C)cc(NC(=O)Nn2cnnc2)c1	1	4	-9	i	7	-11	-2	-18
COC(=O)c1ccccc1N1CCS(=O)(=O)CC1	-2	2	-8	i	-1	/	-8	9
CC(Sc1nc2c(c(=O)[nH]1)CCCC2)C(=O)Nc1ccc(S(N)(=O)=O)cc1 (stereo not given)	-3	1	-5	/	13	-7	6	-5
O=C(O)CCC(=O)Nc1ccc(N2CCCCCC2)cc1	0	3	-17	i	1	-2	3	/
O=C1COc2ccc(C(=O)CSc3nnc(NCc4ccccc4)s3)cc2N1	3	0	2	i	-1	/	-2	-2
CC12CCC(=O)N1C(C(=O)NCCN1C(=O)S/C(=C\c3ccc(OC(F)F)cc3)C1=O)CS2 (stereo not given)	-2	-2	8	i	/	-8	/	-29
CC(=O)Nc1cc(-c2cccc(F)c2)cn2c(-c3ccc(F)cc3)cnc12	-1	-2	/	/	/	-15	/	-8
N#CCCN(C(=O)COC(=O)c1ccc(S(=O)(=O)N2CCCCCC2)cc1)c1ccccc1	-2	3	-2	i	/	-3	/	-7
O=C(O)CCc1nc2cc3ccccc3cc2[nH]1	2	5	-1	i	0	/	0	8
COCCn1c(=S)[nH]c2cc(C(=O)NC(C)C)ccc2c1=O	4	1	2	/	-3	-7	44	-35
O=C(CSc1nnnn1C1CC1)N1CCN(c2ccccc2F)CC1	5	1	/	/	/	-8	/	-30
CC(C)c1ccccc1OCCNC(=O)c1cccnc1	5	-8	1	i	-5	/	-5	26
CCOC(=O)CN1C(=O)N[C@@H](CCc2ccccc2)[C@H](C(C)=O)[C@H]1C	3	2	/	i	/	-6	/	-13
CC(O)[C@H]1CN=C(N)N1CCCCC1CCCCC1 (stereo not given in full)	-1	2	5	i	-13	-15	-10	-1
O=C(OCC(=O)c1ccc[nH]1)c1ccc2ccccc2n1	-2	0	-5	i	28	/	26	3
CN(c1ccccc1)S(=O)(=O)c1ccc(Cl)c(C(=O)NCCc2c[nH]c3ccccc23)c1	-4	-4	4	i	4	/	11	-3
COC(=O)c1ccccc1NC(=O)C1CCN(S(=O)(=O)c2cc(C)ccc2OC)CC1	5	-8	0	i	3	-14	5	/
O=C(c1ccc(F)cc1)N1CCC(C(=O)N2CCCc3ccccc32)CC1	-3	2	/	/	/	-1	/	-18
CCCC(C(=O)NCC1CCCO1)N(Cc1ccccc1)C(=O)CNS(=O)(=O)c1ccccc1 (stereo not given)	2	4	7	i	-3	-25	-4	-2
CCOc1ccc(CC(=O)Nc2c3c(nn2C(C)(C)C)CS(=O)(=O)C3)cc1	1	2	2	i	-13	-11	-3	-10
CCCn1c(SCc2nc(-c3cccs3)no2)nnc1-c1ccncc1	12	2	-8	i	8	5	0	24
CC(=O)NCCNc1nc2cc(-c3ccc(Cl)cc3C)sc2c(=O)n1C	1	-8	/	/	/	-4	/	9
O=C(O)[C@H](Cc1ccccc1)NC(=O)N1CCCCCC1	1	3	-10	i	4	-5	-5	-11
CCC(=O)Nc1c(S(=O)(=O)c2ccccc2)c2nc3ccccc3nc2n1C(C)c1ccccc1 (stereo not given)	-1	-5	20	i	-4	/	3	-21
CC(=O)Nc1nc(=O)c2ccccc2s1	22	5	0	i	15	-13	8	/
CCCNC(=O)Nc1ccc2c(c1)nc(C)n2C	1	4	-6	i	-4	-18	-6	-54

An excerpt from above in order of molecular weight, ascending.
SMILES	MT1-MMP act inh	MT1-MMP act inh RFP	CSC inhib	Rce1 inh	PABP FP inh	Yeast UUG start	eIF4H FP inh	Env fusion inh
CCCNC(=O)Nc1ccc2c(c1)nc(C)n2C	1	4	-6	i	-4	-18	-6	-54
O=C(OCC(=O)c1ccc[nH]1)c1ccc2ccccc2n1	-2	0	-5	i	28	/	26	3
CCOc1ccc(CC(=O)Nc2c3c(nn2C(C)(C)C)CS(=O)(=O)C3)cc1	1	2	2	i	-13	-11	-3	-10
CCC(=O)Nc1c(S(=O)(=O)c2ccccc2)c2nc3ccccc3nc2n1C(C)c1ccccc1 (stereo not given)	-1	-5	20	i	-4	/	3	-21
CCCC(C(=O)NCC1CCCO1)N(Cc1ccccc1)C(=O)CNS(=O)(=O)c1ccccc1 (stereo not given)	2	4	7	i	-3	-25	-4	-2

Going on with the list.
SMILES	MT1-MMP act inh	MT1-MMP act inh RFP	CSC inhib	Rce1 inh	PABP FP inh	Yeast UUG start	eIF4H FP inh	Env fusion inh
O=C(CCc1ccccc1)NC(=S)Nc1cccc(Br)c1	4	5	39	i	-2	-19	7	-179
CC(C)CC1NC(=O)N(CC(=O)N2CCN(S(=O)(=O)c3ccccc3)CC2)C1=O (stereo not given)	6	7	1	i	6	/	-2	/
O=C(NCC1COc2ccccc2O1)c1cccc(S(=O)(=O)N2CCOCC2)c1 (stereo not given)	-5	-2	/	/	/	-11	/	2
CCCc1[nH]nc2c1C(c1cccnc1)C(C#N)=C(N)O2 (stereo not given)	7	5	-7	/	-2	-16	-5	/
Cc1ccc(OCC(=O)Nc2ccc(O)c(-c3nc4ccccc4o3)c2)cc1	-1	2	-8	i	-12	-16	-3	/
NC(Cc1ccc(C(F)(F)F)cc1)c1csc(Nc2ccc(C(=O)NCc3ccco3)cn2)n1 (stereo not given)	-2	-3	/	/	/	-14	/	-26
CS(=O)(=O)N(CC(=O)N1CCc2ccccc2C1)c1cccc(Br)c1	-1	2	-19	i	/	-10	/	-54
O=C(CNC(=O)OCc1ccccc1)NC1CCCCCC1	-3	-1	-14	i	0	-11	1	15
CC(C)Cn1c(-c2ccc(Cl)cc2)cnc1SCC(=O)N1CCOCC1	-2	-3	-1	i	2	-2	2	/
CC(C)CCN1NC2(CCCC(C)C2)NC1=S (stereo not given)	3	1	-7	/	-2	-23	-11	21
NC(=O)C1CCN(c2nc(-c3ccc4occc(=O)c4c3)cs2)CC1	8	1	-4	/	/	-1	/	-2
c1ccc(CC2CCN(c3ncnc4sccc34)CC2)cc1	-8	-31	/	i	17	/	-2	31
Cc1cc(=O)[nH]c2c(C)cc(S(=O)(=O)Nc3ccc(O)cc3)cc12	-2	1	9	i	1	-7	1	-3
CC1Cc2ccccc2N1C(=S)NC(=O)c1ccc(Cl)cc1Cl (stereo not given)	0	-10	20	i	10	-20	5	/
CS(=O)(=O)N1CCC(C(=O)Nc2cc(Cl)c(Cl)cc2Cl)CC1	0	1	4	/	2	-11	-8	13
Nc1nc(C2CC2)c(Sc2sc(N)nc2C2CC2)s1	5	-5	31	i	22	-25	47	/
CCOC(=O)c1ccc(NC(=O)C2(c3ccc(OC)cc3)CCCC2)cc1	-3	-13	-16	i	-4	-6	2	/
CCC(Oc1ccccc1)C(=O)N1CCN(CC)CC1 (stereo not given)	-2	4	4	i	3	-16	-13	8
CC1O[C@@H](OC2C(O)C(C)O[C@H](OC(=O)[C@]34CCC(C)(C)C[C@H]3C3=CCC5[C@@]6(C)CC(O)C(O[C@@H]7OC(CO)C(O)[C@@H](O)[C@@H]7O)[C@@](C)(C(=O)O)C6CC[C@@]5(C)[C@]3(CO)CC4)C2O[C@H]2OC(C)[C@@H](O[C@@H]3OCC(O[C@@H]4OC(CO)C(O)[C@H](O)C4O)[C@@H](O)[C@@H]3O)[C@H](O)C2O)C(O)C(O)C1O (stereo not given in full)	11	2	/	/	/	28	/	0
COc1ccc(C2CC(C(F)(F)F)n3ncc(C(=O)O)c3N2)cc1OC (stereo not given)	3	0	-16	i	-10	7	-10	/
CC(C)c1ccc(OCCCCCN2CCOCC2)cc1	0	3	47	i	7	-8	12	22
O=C(NCc1cccc(C(F)(F)F)c1)c1ccc2sc([C@@H]3O[C@H](CO)[C@@H](O)[C@H]3O)nc2c1	2	-3	/	/	/	-25	/	12
Cc1ccc(-n2c(=S)[nH]c3nc4c(cc3c2=O)COC(C)(C)C4)cc1	-2	-1	-10	i	0	/	-7	-12
Cc1c(N2C(=O)c3cccc4cccc(c34)C2=O)c(=O)n(-c2ccccc2)n1C	0	1	-1	i	2	/	3	/
C/C(CC(=O)Nc1ccc(Cl)cc1Cl)=N\NC(N)=S	-3	-4	-17	i	-11	-40	0	-50
COc1cccc(/C(C)=N/NC(=O)c2cc(-c3cccnc3)nc3ccccc23)c1	0	3	6	i	-7	/	-1	14
COc1ccc(Cn2nnnc2C(c2ccccn2)N2CCN(c3cc(Cl)ccc3C)CC2)cc1 (stereo not given)	-20	-21	31	i	2	-6	-12	/
Cc1nn2cc(-c3ccccc3)nc2[nH]c1=O	6	7	-6	i	0	/	-3	/
Cc1ccc(N2CCN(C(=O)Nc3cccc([N+](=O)[O-])c3)CC2C)cc1 (stereo not given)	4	-7	-12	i	-14	8	13	-8
N#Cc1ccc(C2=CC(=O)C[C@H](c3ccc4c(c3)OCO4)C2)cc1	-1	-2	58	/	/	1	/	-3
CCCN1CCN(C(=O)Cn2nc(C)n3c(cc4sccc43)c2=O)CC1	4	1	-14	i	10	3	1	-11
C=CCCC1(C)C(=O)N(c2ccccc2)c2ccccc21 (stereo not given)	2	-2	/	i	-6	/	-6	-46
N#Cc1nc(-c2ccc(OCc3ccccc3)cc2)oc1NCCN1CCOCC1	/	/	9	i	6	/	4	/

Compound activity from PubChem.
